Screening data: PubChem, Fisher Drug Discovery Resource Center
NPYLR7 agonist: mosquito NPYLR7 agonism; 270,000 tested, 0.15% active; activation, % at 10 µM; AID 1259423; HEK293T NPYLR7/Galpha15, GCaMP6s calcium fluorescence; in the data active = activation above about 40%;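 note: 0% = vehicle and 100% = reference agonist at the receptor; some compounds past the cut are filed as inactive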
NPYLR7 agonist max-min: further read-out of NPYLR7 agonist, marked with its call; activation, %; measured here: Max-Min RFU normalised activation; some inactives read as strong as hits;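 span of the calcium signal over five minutes; 0% = vehicle and 100% = native peptide agonist; compound fluorescence can raise it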
* marks the source's active call; other numbers are inactive results.

SMILES	NPYLR7 agonist	NPYLR7 agonist max-min
Cc1csc(CN(CC2CCCO2)C(=O)C2CC3C=CC2C3)n1 (stereo not drawn)	4	7
COc1ncccc1NS(=O)(=O)c1ccc(Br)c(C)c1	2	4
CSc1ccc(C(=O)C2CCCN(C(=O)CN3CCOC3=O)C2)cc1 (stereo not drawn)	25	6
CCOc1ccccc1N1CCN(S(=O)(=O)c2ccc(Br)cc2)CC1	-7	-9
CCc1cc(N2CCCC2)nc(SCc2ccc(C(=O)N3CCOCC3)cc2)n1	5	14
O=C(OCc1ccccc1)N1CCC2(CC1)OCc1cc(-c3ccc(F)cc3)ccc1O2	-2	-7
COc1cccc(-c2cc(C(=O)N3CCC(n4c(=O)[nH]c5ccccc54)CC3)c(C)n2-c2ccccc2F)c1	-14	-16
Cc1cc(C)nc(NN=C2C(=O)c3cccc4cccc2c34)n1	5	5
Cc1ccc(NC(=O)CCNC(=O)CC2C(=O)NCCN2C(C)C)c(C)c1 (stereo not drawn)	6	3
COCCn1c(=O)c(C#N)cc2c(=O)n3cccc(C)c3nc21	2	-2
Oc1ccc(-c2nccnc2NCc2ccc3c(c2)OCO3)cc1	22	4
CC1CCCCN1CCCNC(=O)CC(c1ccc(F)cc1)c1cn(Cc2ccccc2)c2ccc([N+](=O)[O-])cc12 (stereo not drawn)	6	17
Cc1sc2[nH]c(=S)n(C)c(=O)c2c1C	6	6
C=CCn1c(NCCC(c2ccccc2)c2ccccc2)nc2c1c(=O)[nH]c(=O)n2C	13	7
CC(C)NC(=O)Nc1c(-c2cccc(Cl)c2)n[nH]c1C1CC1	5	4
O=[N+]([O-])c1ccc(CON=Cc2ccc(OC(F)F)cc2)cc1	3	0
CCC(C)N(Cc1ccccc1OS(C)(=O)=O)C(=O)C(C)C (stereo not drawn)	10	19
CN(C/C=C/c1ccccc1)C(=O)CC1C(=O)NCCN1Cc1ccoc1 (stereo not drawn)	2	0
CCCCCSc1n[nH]c(N)n1	1	10
CC1=NNc2nc3c(c(=O)n(Cc4ccccc4F)c(=O)n3C)n2C1	-8	-11
CCOc1cccc(CN2CCCn3cccc3C2c2ccccc2F)c1 (stereo not drawn)	-2	3
O=C(Cc1ccsc1)N1CCC(n2nc(-c3ccccc3)cc2-c2ccccc2)CC1	4	0
COC(=O)N(Cc1ccccc1)[C@@H]1C[C@@H]2COCC[C@]2(c2ccccc2)C1	9	17
O=C(CN1CCCCCC1)NCCn1nnc2ccccc21	8	-1
O=c1nc(SCc2ccccc2F)c2c(n1Cc1cccnc1)CCC2	-3	-5

The listing continues:
SMILES	NPYLR7 agonist	NPYLR7 agonist max-min
COc1cccc(-c2nnc(SCc3ccc(C(=O)NCc4ccco4)cc3)n2-c2cccc(Cl)c2)c1	12	19
O=C1C(NCc2cccc3c2OCO3)CCN1c1c(F)cccc1F (stereo not drawn)	9	6
COc1cccc(N2C(=O)/C(=C/c3ccc(-c4ccc([N+](=O)[O-])cc4)o3)C=C2c2ccccc2)c1	-2	-1
CC1CCCN(C(=O)NCCc2coc(-c3ccc(F)cc3)n2)C1 (stereo not drawn)	8	3
CNC(=O)Cn1nc(C(=O)N2CCOC(c3ccc(Cl)cc3)C2)cc1C (stereo not drawn)	-3	-5
COc1ccc(/C=C2/N=C(c3ccccc3Br)OC2=O)c(OC)c1	-1	3
Cc1nn(C)c(C)c1CN(C(=O)Cc1cccnc1)C1CC1	-2	-1
O=C(NC(Cc1ccccc1)C(=O)N1CCCc2ccccc21)c1ccco1 (stereo not drawn)	4	2
COc1ccc(NC(=O)Cn2ncn3nc(-c4ccc(Cl)cc4)cc3c2=O)c(OC)c1	-10	-17
Cc1ccc(F)c(NS(=O)(=O)c2cnccc2Cl)c1	-4	-8
O=C(NCc1cccc(-c2ncc(-c3ccc(F)cc3)[nH]2)c1)c1ccc(F)c(F)c1	3	1
O=C(NCC1CCCCC1)c1cccnc1Nc1cccc(Cl)c1	-9	-13
C#CCN(Cc1ccccc1Cl)C(=O)CSc1nnc(C)s1	0	-7
CCOC(=O)c1cc([C@@H](C)CCC=C(C)C)sc1NC(=O)CC(=O)OC	3	2
CC(C)N1CCN(Cc2cccc(O)c2)CC1CCO (stereo not drawn)	5	2
Clc1ccc(/C=C/C2SCCCS2)c(Cl)c1	-8	-9
COc1ncccc1C(=O)N1Cc2ccccc2C(c2ccccc2)C1 (stereo not drawn)	1	-1
O=S(=O)(O)CC(S)CS (stereo not drawn)	-21	-27
Cc1ccc(C)c(N2CCN(c3ncnc4nc[nH]c34)CC2)c1	5	4
CN(C)CCCCCCCCCCNC(=O)/C=N/O	4	2
COCCCNc1nc2nonc2nc1N1CCN(c2ccccc2OC)CC1C (stereo not drawn)	18	7
COc1cccc(OCc2ccccc2)c1C(=O)NCC(c1ccccc1)c1ccccc1	-4	-10
O=C(NCCOc1cc(N2CCCC2)ncn1)c1ccccc1Cl	1	0
CN(Cc1cc(=O)c2ccccc2[nH]1)Cc1ncc[nH]1	1	0
CN(C)c1ccc(NC(=O)c2ccccc2Cl)cc1CN(Cc1ccccc1)C(=O)c1ccccc1Cl	13	12

The listing continues:
SMILES	NPYLR7 agonist	NPYLR7 agonist max-min
COc1cccc(C(=O)N2CCCN(c3cccc(C(F)(F)F)n3)CC2)c1	3	1
O=C(c1ccc(-c2nnco2)cc1)N1CCN(S(=O)(=O)c2c(Cl)cccc2Cl)CC1	2	2
Cc1ccc(-n2nnnc2SCC(=O)N2CCCCC2C)cc1 (stereo not drawn)	-9	-8
CNC(=O)Cc1ccc(NS(=O)(=O)C2CCCCC2)cc1	-9	-10
CCOC(=O)C1(C)CCCCCN1C(=O)c1cccc(C#N)c1 (stereo not drawn)	-2	-8
c1cc2c(cc1CN1COc3cc4c(cc3C1)OCO4)OCO2	9	4
O=C(Cn1nc2c(c1NC(=O)Cc1ccccc1Cl)CSC2)NCC1CCCO1 (stereo not drawn)	-3	-3
O[C@@H]1CN(Cc2cc3n(n2)CCCNC3)CC[C@H]1c1ccc2c(c1)OCO2	7	6
Cc1ccc2cc(C)c(-c3ccncc3)nc2c1	8	3
Cc1ncc(Cc2ccccc2)c(C2CCN(C(=O)/C=C/c3cccs3)CC2)n1	11	11
Fc1c(F)c(N2CCCCC2)c(F)c2c1C=Nc1ccccc1O2	17	14
O=c1c(Cl)c(NCc2ccc(Cl)cc2)cnn1C1CCS(=O)(=O)C1 (stereo not drawn)	3	1
CCOc1cc(CNc2ccc(N3CCN(C(C)=O)CC3)cc2)cc(Br)c1OC	5	13
Cc1ccc(F)c(C(=O)N2CCC(Cc3cccc(C(N)=O)c3)C2)c1Cl (stereo not drawn)	-1	-2
CCCC(=O)OCC(O)CN(Cc1ccc(C)s1)C1CC1 (stereo not drawn)	21	29
Cc1cc(C)c(NC(=O)CN2CC(C(=O)N3CCCCC3)Oc3ccccc32)c(Cl)c1 (stereo not drawn)	-1	6
Cc1c(Cl)cccc1N1CCN(S(=O)(=O)c2ccc(F)cc2)C(C)C1=O (stereo not drawn)	-6	1
CCONC(=O)c1cccc(S(=O)(=O)Nc2cc(C)ccc2Br)c1	7	4
Cc1ccc2nc3n(c(=O)c2c1)CCCc1nn(-c2nc(C)cc(C)n2)c(N)c1-3	-7	-13
Cn1cc(NC(=O)c2cccc(CN3CCN(c4cnccn4)CC3)c2)cn1	1	-2
CC1CCCCN1C1CN(Cc2ccc(C(=O)Nc3cnn(C)c3)cc2)C1 (stereo not drawn)	3	3
COc1ccc(C2(C(=O)NC3C=CS(=O)(=O)C3)CCCC2)cc1 (stereo not drawn)	-6	-7
CCS(=O)(=O)c1ccc(C(=O)N(CCN(C)C)c2nc3ccc(F)cc3s2)cc1	-3	-9
CCOC(=O)c1c(NC(=O)C(=O)OC)c(-c2cccc(F)c2)cn1Cc1ccccc1	0	-2
Nc1nc(SCn2nnc3ccccc3c2=O)n[nH]1	-5	-5

Remaining list, next part
SMILES	NPYLR7 agonist	NPYLR7 agonist max-min
COc1ccc(-c2noc(CN3CCC(Sc4ccc(C)cc4)CC3)n2)cc1	-7	-8
CCOc1ccc(CN(C(=O)c2scc3c2OCCO3)C2CC2)cc1	15	5
CCCCN(Cc1ccc(OS(C)(=O)=O)cc1)C(=O)c1ccc(-c2ccccc2)cc1	-8	5
CC(C)c1[nH]n(-c2cccc(Cl)c2)c(=O)c1C1=C([n+]2ccccc2)C(=O)N(C(C)C)C1=O	9	5
Cc1ccc(NC(=O)NCCS(=O)(=O)c2c(C)[nH]c3ccccc23)cc1	1	6
COc1ccc(CN(CCc2c[nH]c3ccccc23)C(=O)CN(CC(C)C)C(=O)Nc2cccc(F)c2)cc1OC	-1	10
Cn1ccnc1C(Nc1cn[nH]c(=O)c1Cl)c1ccccc1 (stereo not drawn)	-2	-4
COc1ccccc1CNC(=O)c1cn(C)c2c(=O)n(-c3ccc(C)cc3)c(=O)[nH]c12	2	3
C(=N/Nc1nc(N2CCCC2)nc(N2CCCC2)n1)/c1c[nH]c2ccccc12	-8	-20
Cc1ccc(-c2ccc(=O)n(CCCNC(=O)Nc3ccc(F)c(F)c3)n2)cc1	-3	-3
CN(Cc1cc(-c2ccccc2)on1)C(=O)C1CC2(CCNCC2)CN1 (stereo not drawn)	6	4
CN(C)c1ccc(N)cc1CN(Cc1ccco1)C(=O)c1cccs1	-4	5
O=C(CSc1ccc(C(=O)NCCc2ccc(F)cc2)cn1)c1ccc(Cl)cc1	0	-3
CC(=O)Nc1ccc(C2Nc3cc(C)c(C)cc3N=C3CC(C)(C)CC(=O)C32)cc1 (stereo not drawn)	-6	-8
CCOC(=O)CCC(=O)Nc1cccc2ccc(-n3ccnc3)nc12	-1	-5
COc1ccc(NC(=O)c2sc(=O)n(Cc3c(C)cccc3C)c2C)cc1OC	13	8
CCc1nc2c(OCCn3cccc3)cccn2c1N(C)C(=O)CC(C)C	3	4
CCOC(=O)c1c(C)c(C(=O)CN(C(=O)c2ccccc2F)C(C)C)c(C)n1C	0	6
Cc1noc(C)c1COC(=O)c1ccc(OC2CCCC2)cc1	3	2
CC1CN(P2(=O)C=C(c3ccccc3)OC(c3ccccc3)=C2)CC(C)O1 (stereo not drawn)	2	-1
COc1ccc(S(=O)(=O)Oc2ccc(CN(CC3CCCO3)C(=O)c3ccco3)cc2)cc1 (stereo not drawn)	6	9
O=C(NC1CCCCC1)C1CC(=O)N(C2CCCCCCC2)C1 (stereo not drawn)	2	3
CCN(Cc1ccccc1)S(=O)(=O)c1ccc(F)c(C(=O)Nc2cc(Cl)ccc2OC)c1	-2	-4
O=S1(=O)CCC(NC2CC2)C1 (stereo not drawn)	3	1
O=C1CCCN1c1ccc(C2=NNC(=NC3CCCC3)SC2)cc1	6	6

Entries from the list above that have a furan ring, fused or not:
SMILES	NPYLR7 agonist	NPYLR7 agonist max-min
CN(C/C=C/c1ccccc1)C(=O)CC1C(=O)NCCN1Cc1ccoc1 (stereo not drawn)	2	0
COc1cccc(-c2nnc(SCc3ccc(C(=O)NCc4ccco4)cc3)n2-c2cccc(Cl)c2)c1	12	19
COc1cccc(N2C(=O)/C(=C/c3ccc(-c4ccc([N+](=O)[O-])cc4)o3)C=C2c2ccccc2)c1	-2	-1
O=C(NC(Cc1ccccc1)C(=O)N1CCCc2ccccc21)c1ccco1 (stereo not drawn)	4	2
CN(C)c1ccc(N)cc1CN(Cc1ccco1)C(=O)c1cccs1	-4	5
COc1ccc(S(=O)(=O)Oc2ccc(CN(CC3CCCO3)C(=O)c3ccco3)cc2)cc1 (stereo not drawn)	6	9

(continued)
SMILES	NPYLR7 agonist	NPYLR7 agonist max-min
CCOC(=O)C1(C)CCCN1C(=O)c1cncc(Br)c1 (stereo not drawn)	-3	-7
Cc1ccc(C(c2c(C)[nH][nH]c2=O)c2c(C)[nH][nH]c2=O)o1	13	4
COc1cccc(CO[C@]2(C(=O)NCCN3CCOCC3)CC(OCc3c(F)cccc3F)[C@@H]3OC(C)(C)O[C@@H]3C2)c1 (stereo partly drawn)	-7	-13
Cc1cc(C(=O)NCc2ccc(-n3cncn3)cc2)n[nH]1	9	9
COc1ccc(OC)c(CNC(=O)c2c(C)nn(C)c2Cl)c1	-2	-4
Cc1cc(-c2c(-c3ccccc3)ncn2CC(c2ccc(C)o2)N(C)C)n[nH]1 (stereo not drawn)	-2	-4
COc1ccc(NC(=O)c2cn3c(=O)ccnc3s2)cc1	7	3
Brc1ccc(-c2nnc(CSc3nnc4n3CCCCC4)o2)cc1	2	0
O=C(Nc1cccc(=O)[nH]1)Nc1ccccc1F	7	14
CSCCCNC(=O)c1c(C)noc1-c1ccccc1C	-2	0

Filtered by structure, those above containing a cyano group.
SMILES	NPYLR7 agonist	NPYLR7 agonist max-min
COCCn1c(=O)c(C#N)cc2c(=O)n3cccc(C)c3nc21	2	-2
CCOC(=O)C1(C)CCCCCN1C(=O)c1cccc(C#N)c1 (stereo not drawn)	-2	-8

Molecules above containing bromine (7):
SMILES	NPYLR7 agonist	NPYLR7 agonist max-min
COc1ncccc1NS(=O)(=O)c1ccc(Br)c(C)c1	2	4
CCOc1ccccc1N1CCN(S(=O)(=O)c2ccc(Br)cc2)CC1	-7	-9
COc1ccc(/C=C2/N=C(c3ccccc3Br)OC2=O)c(OC)c1	-1	3
CCOc1cc(CNc2ccc(N3CCN(C(C)=O)CC3)cc2)cc(Br)c1OC	5	13
CCONC(=O)c1cccc(S(=O)(=O)Nc2cc(C)ccc2Br)c1	7	4
CCOC(=O)C1(C)CCCN1C(=O)c1cncc(Br)c1 (stereo not drawn)	-3	-7
Brc1ccc(-c2nnc(CSc3nnc4n3CCCCC4)o2)cc1	2	0

Not all compounds are listed; count on the stated rates, not on these rows.
